ALR H2O2 inh: blocks human ALR sulfhydryl oxidase activity; P55789; inhibition, % (no concentration beside the values); actives 3.8% (n = 290,000); purified ALR, DTT oxidation, H2O2 HRP-luminol luminescence;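 active means mean and each replicate at 75% or more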;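 further: stock transfer was 7.5 nL into about 7.5 µL; 0% = neutral wells and 100% = wells with inactivated enzyme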
Target sequence (P55789 whole entry, looked up): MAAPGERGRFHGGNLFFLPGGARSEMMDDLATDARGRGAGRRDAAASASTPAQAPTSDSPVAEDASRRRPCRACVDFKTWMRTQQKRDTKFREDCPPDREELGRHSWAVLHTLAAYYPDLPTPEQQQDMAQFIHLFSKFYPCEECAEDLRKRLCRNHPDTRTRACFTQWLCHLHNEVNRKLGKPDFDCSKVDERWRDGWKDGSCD
UCH37 DUB inh: human UCH37 deubiquitinating enzyme inhibition; inhibition, % (no concentration beside the values); AID 588478; Q9Y5K5; actives 0.33% (n = 330,000); purified proteasome/UCH37, Ub-AMC cleavage fluorescence;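 active means mean of two replicates above 20%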;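 further: 0% = compound-free wells with enzyme and 100% = wells lacking proteasome; stock transfer was 100 nL into about 20 µL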
Target sequence (Q9Y5K5 whole entry, looked up): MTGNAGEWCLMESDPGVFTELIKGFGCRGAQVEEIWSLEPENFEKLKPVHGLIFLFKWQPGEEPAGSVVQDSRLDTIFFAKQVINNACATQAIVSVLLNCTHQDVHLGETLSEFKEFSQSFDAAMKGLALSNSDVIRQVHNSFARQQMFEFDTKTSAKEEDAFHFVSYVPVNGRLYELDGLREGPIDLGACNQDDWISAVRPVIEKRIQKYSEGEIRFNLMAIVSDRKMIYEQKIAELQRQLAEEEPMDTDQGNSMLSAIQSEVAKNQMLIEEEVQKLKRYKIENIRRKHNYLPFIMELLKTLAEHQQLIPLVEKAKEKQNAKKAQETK
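Test system – human UCH37 enzyme supplied as purified proteasome complex · Incubation – 30 min preincubation with enzyme, 25 min cleavage at room temperature · Detection – AMC fluorescence from Ub-AMC cleavage, excitation 355 nm, emission 460 nm · Benchmarks – no-proteasome wells (full inhibition) and compound-free wells (no inhibition)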
FGF22 binding: FGF22 (human) thermal shift binding | actives 1.5% (n = 340,000) | recombinant FGF22 thermal shift, SYPRO orange fluorescence; percent of sucrose octasulfate shift, DMSO zero | calls only at 9.99 µM;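 active means melting point raised past a set limit in the mean and every replicate; three in four hits are not shown here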
Target sequence (Q9HCT0 whole entry, looked up): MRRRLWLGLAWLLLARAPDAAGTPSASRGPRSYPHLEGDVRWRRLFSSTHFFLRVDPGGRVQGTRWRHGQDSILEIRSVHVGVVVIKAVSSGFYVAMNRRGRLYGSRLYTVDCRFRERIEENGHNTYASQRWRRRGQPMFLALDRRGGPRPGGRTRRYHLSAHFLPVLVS
HNF4A DNA FP: change in binding of human HNF4 alpha to DNA; P41235; HNF4a-FITC DNA binding, fluorescence polarization, 1 h; activity change, % at 10 µM; actives 0.3% (n = 360,000); AID 1224865; in the data active means activity change above about 30%, passing the limit was not always enough;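 further: controls were the assay level and a saturating level of protein; the project sought stronger binding though the title names inhibitors; some compounds called inactive have numbers as strong as hits; positive values seem to mean higher polarization but the record does not say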
LANA-H2A inh: blocks KSHV LANA binding to histone H2A/H2B; Q9QR71; cell-free LANA-H2A/H2B peptide, fluorescence polarization; inhibition, % (concentration not given with the values); actives 0.6% (n = 320,000); in the data active means inhibition mostly above about 10%, no sharp cut-off; inactive means mostly below about 6.7%;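 further: stock transfer was 7.5 nL into about 10 µL; 0% = median of vehicle wells and 100% = median of positive control wells; one replicate is shown; the record names a cut of 25% in any replicate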
E coli growth: blocks Escherichia coli growth; OD600, 23 h; active compounds read low; OD600 absorbance (test concentration not listed); actives 0.21% (n = 330,000);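 active means OD600 absorbance below the run mean of sample wells minus 3.6 SD, in any replicate, cut at about 0.56 in these data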;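 further: stock transfer was 300 nL into about 60 µL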
B2AR ag: human beta-2 adrenergic receptor agonism by FAP. P07550. Am2.2-beta2AR cells, FAP receptor internalization, flow cytometry; reference of the scale not given here. response, % (concentration not given with the values). actives 0.43% (n = 340,000). AID 504454;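 active means response above a set limit, near 3 SD of response in nonfluorescent compounds, cut at about 42% in these data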;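 further: stock transfer was 100 nL into about 11 µL; a reference agonist was the positive control; negative values mostly stem from fluorescent compounds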
Numbers without * were called inactive; i = inactive; x = no result given. A portion of the library. The share of hits here may be higher or lower than overall.

Values run as follows: UCH37 DUB inh	E coli growth	ALR H2O2 inh	B2AR ag	LANA-H2A inh	FGF22 binding	HNF4A DNA FP
> COc1ccc(O)c(-c2[nH]ncc2C(=O)c2cccc(C)c2)c1
    2.0	0.68	38	3	-5.8	i	-1.0
> CCOc1ccc(S(=O)(=O)N2CCN(C(=O)CCOc3ccccc3C)CC2)cc1
    4.4	0.68	0	-12	2.3	i	2.3
> CCn1c(SCC(=O)NCCCN2CCCC2=O)nnc1-c1cccc(C)c1
    -0.6	0.62	x	-2	x	i	-0.1
> NC(=O)c1nsc(C(=O)N(Cc2cccnc2)C(C(=O)NCc2ccc(F)cc2)c2ccc(O)cc2)c1N (centres undefined)
    -49	0.69	0	3	-1.7	i	-1.6
> Clc1ccc2nc(C3CCN(Cc4ccccc4)CC3)[nH]c2c1
    5.4	0.64	-10	0	-2.1	x	13
> COc1ccc(CC(=O)Nc2cc(Cl)ccc2C(=O)O)cc1
    x	x	2	-2	1.5	i	-1.6
> O=C(CSc1ccccc1C(=O)N1CCN(c2ccccc2)CC1)N1CCCC1
    -7.3	0.71	98*	1	-2.3	i	1.4
> Cc1cc(C)c(C(=O)Cn2nc(C)c([N+](=O)[O-])c2C)cc1C
    2.3	0.71	7	-5	-3.4	i	-1.4
> CCOC(=O)C1(CCOc2ccccc2)CCN(Cc2cccc(OCCO)c2)CC1
    4.8	0.67	x	-5	2.0	i	0.1
> O=C(CCc1ccccc1)NNC(=O)c1ccccc1Cl
    2.1	0.69	-5	3	1.4	i	-0.7
> COc1ccccc1N1CCN(C(=O)CSc2ccccc2)CC1
    3.3	0.81	99*	7	-1.1	x	1.3
> NC(=NCCc1c[nH]c2ccccc12)NS(=O)(=O)c1cc(F)ccc1F
    2.2	0.68	2	7	2.2	i	3.2
> Cc1cccc2cc(CN(CC3CCCO3)C(=O)c3ccncc3)c(=O)[nH]c12 (centres undefined)
    -4.9	0.74	5	3	-0.9	x	-3.0
> O=C(NC(NCc1ccccc1)C(Cl)(Cl)Cl)c1cccnc1 (centres undefined)
    0.8	0.68	-22	-2	5.8	x	2.8
> CCc1nnc(NC(=O)CSc2nc3cc(OC)c(OC)cc3cc2C)s1
    4.4	0.67	-4	5	-2.5	i	0.8
> COc1ccccc1C(=O)OCCN=C1NS(=O)(=O)c2ccccc21
    3.8	0.71	-7	6	0.5	i	1.0
> COc1ccc(C(=O)Cc2cc3ccccc3oc2=O)cc1
    -0.1	0.68	x	-5	4.0	i	-0.8
> Cc1nnc(NC(=O)CN2CCN(Cc3c(Cl)cccc3Cl)CC2)s1
    6.0	0.62	0	0	-0.9	i	-0.2
> CCN1CCN(c2nc(C)c3c(n2)CCCC3=O)CC1
    4.9	0.71	-6	2	3.0	x	-0.7
> COCCNC(=S)N1CCC(c2nc(-c3ccc(F)cc3)no2)CC1
    -0.4	0.67	0	0	2.8	i	-0.9
> CC(=O)Nc1ccc(NC(=O)c2cc[n+]([O-])cc2)cc1
    6.0	0.7	-10	6	7.6	i	0.7
> COc1ccccc1NC(=O)CN1C(=O)NC2(CCCc3ccccc32)C1=O (centres undefined)
    4.8	0.61	x	-6	x	i	1.0
> CCc1ccccc1NC(=O)C1CCCN(c2ncccn2)C1 (centres undefined)
    -1.1	0.69	-1	7	1.9	i	-2.8
> COc1ccccc1CC(=O)Nc1ccc(S(=O)(=O)N2CCCC2)cc1
    0.7	0.69	24	2	5.2	i	-0.9
> O=C(NNC(=O)c1c(O)c2ccccc2[nH]c1=O)c1ccccc1Br
    -0.4	0.69	x	-2	-3.9	i	3.0
> Cc1nnc(CN(C)C(=O)CC2C(=O)NCCN2Cc2ccccc2C)o1 (centres undefined)
    -3.7	0.67	-5	3	3.0	i	2.4
> O=C(CN1C(=O)NC2(CCCCC2)C1=O)Nc1cccc(S(=O)(=O)N2CCCC2)c1
    4.4	0.69	x	-2	2.5	i	-0.3
> Cc1ccc2cc(CN(CCCO)S(=O)(=O)c3ccccc3F)c(=O)[nH]c2c1C
    -11	0.63	1	-5	-3.1	i	-0.6
> Cc1cc(NC(=O)CON=C(N)CC(=O)Nc2ccccc2Cl)ccc1Br
    1.8	0.68	x	13	x	i	-0.3
> C=CC(=O)NCc1ccc(-c2csnn2)cc1
    0.9	0.69	x	-8	-1.4	i	1.5
> O=C(c1ccccc1)N1CCCCC(S(=O)(=O)c2ccccc2)C1=O (centres undefined)
    2.8	0.7	4	13	1.3	i	-1.2
> CN(C)c1cccc2c1c(NC(=O)Nc1ccc(Cl)cc1Cl)nn2C
    0.4	0.66	-27	0	-2.1	i	1.3
> COc1ccccc1CC(=O)N1CCN(C(=O)c2ccco2)CC1
    -0.3	0.7	6	4	0.1	i	-2.4
> CCCCCCC1CC(C)(C(=O)CNc2nncs2)OC1=O (centres undefined)
    1.5	x	x	-9	0.6	i	3.8
> CCOc1cccc(NC(=O)c2ccc(S(=O)(=O)N3CCCC3)cc2)c1
    3.8	0.7	-11	12	-1.3	i	-2.0
> CC(=O)c1ccc(S(=O)(=O)N2CCN(C(=O)/C=C/c3ccc4ccccc4n3)CC2)cc1
    4.2	0.7	-8	-3	1.0	i	-8.1
> Cn1ncc(Br)c1C(=O)OCC(=O)Nc1nc(-c2ccccc2)cs1
    1.4	0.65	x	6	-5.3	x	-2.1
> COc1ccc(N2CCN(CCCNC(=O)CCC(=O)N3CCOc4ccc(Cl)cc43)CC2)cc1
    1.4	0.66	99*	11	5.4	i	2.1
> CN(CC(=O)NCCCN1CCOCC1)S(=O)(=O)c1ccc(F)cc1
    1.5	0.69	1	13	-2.2	x	2.5
> CC(=O)N1C(=O)/C(=C2\SC(=S)N(NC(=O)c3ccc(O)cc3)C2=O)c2ccccc21
    41*	0.71	x	8	-0.2	i	-1.6
> CN(C)C(=O)c1cnc(-c2ccccc2)nc1-c1ccccc1
    2.3	0.68	-6	-5	2.5	i	1.5
> COC(=O)C(C)Sc1nnc(Cc2cc(=O)[nH]c(=O)[nH]2)n1-c1cc(C)ccc1C (centres undefined)
    8.8	0.73	91*	-5	2.0	i	2.2
> Fc1ccc(CNC(=S)Nc2ccc(Cl)cc2Cl)cc1
    x	x	-3	0	2.2	x	-3.4
> Cc1ccccc1OCC(=O)Nc1ccccc1-c1ccccc1
    5.2	0.68	-9	32	0.1	i	-0.7
> COc1ccc([C@H]2C(C#N)=C([S-])N[C@](C)(O)[C@@H]2[n+]2ccccc2)cc1
    5.4	0.62	x	21	x	i	6.1
> CC(C)(C)c1ccc(C(=O)Nc2ccc(C(=O)N3CCCC3)cc2)cc1
    3.1	0.7	8	9	-5.8	i	6.3
> COc1ccccc1-c1cc(C(F)(F)F)nc(N2CCN(c3ccccc3)CC2)n1
    4.7	0.73	x	-3	5.9	x	-6.5
> Cc1noc(C)c1COc1ccc(C(=O)OC(C)C(=O)Nc2ccc(S(=O)(=O)N3CCOCC3)cc2)cc1 (centres undefined)
    -1.0	0.7	-14	-6	-0.3	i	0.2
> COc1ccc(CN(C(=O)/C=C/c2ccccc2Cl)C2CCS(=O)(=O)C2)cc1 (centres undefined)
    1.8	0.63	-10	2	-2.5	i	-3.5
> CCOC(=O)[C@@H]1[C@H]2COc3ccccc3[C@H]2N2C(=O)N(c3ccc(OC)cc3)C(=O)[C@]12C
    4.2	x	-18	1	5.8	i	-0.7

Other results:
Values run as follows: UCH37 DUB inh	E coli growth	ALR H2O2 inh	B2AR ag	LANA-H2A inh	FGF22 binding	HNF4A DNA FP
> Cc1ccc(CC(=O)NCc2ccc(Cl)cc2)cc1
    0.0	0.7	6	-2	-2.1	x	3.9
> CCOCC(=O)Nc1cccc(NC(C)=O)c1
    2.6	0.77	-26	4	0.9	x	-1.6
> COc1cccc(C2CC(=O)Nc3cc4c(cc32)OCCO4)c1OC(C)C (centres undefined)
    6.6	0.73	-2	-2	-4.2	i	1.4
> CC1=C(C(=O)OCc2ccccc2)C(c2ccc(Cl)cc2Cl)NC(=O)N1CCCC(=O)O (centres undefined)
    4.1	0.69	1	9	22	x	4.3
> COc1ccccc1C(=O)Nc1ccnn1C1CCN(CCCC2CCCC2)CC1
    1.6	0.68	-5	-5	14	i	-1.4
> CC(=O)N1CCN(Cc2nc3cc(Cl)ccc3c(=O)[nH]2)CC1
    -3.9	0.7	-1	-3	1.0	i	4.2
> CCCc1nnc(NC(=O)C2CC(=O)N(C3CCCC3)C2)s1 (centres undefined)
    5.8	0.69	x	-2	0.4	i	-1.4
> Cc1csc(NC(=O)c2nc3nccc(C)n3n2)n1
    7.4	0.67	-2	-19	3.2	x	1.8
> CON(C)S(=O)(=O)c1ccc2c(c1)NC(=O)C1CCCN21 (centres undefined)
    -13	0.68	13	13	-3.6	x	-0.3
> CCN(CC)C(=O)c1cc2c(=O)oc3ccccc3c2s1
    6.1	0.73	0	-4	6.3	x	-5.7
> CCOC(=O)CSc1nc2ccc(C)cc2n2cnnc12
    4.0	0.69	7	18	2.7	i	-1.9
> O=C(c1cccs1)c1coc2ccc(O)c(CN3CCOCC3)c12
    4.0	0.66	12	-17	-0.7	x	-4.5
> O=C1/C(=C/c2coc3ccc(O)cc3c2=O)SC(=S)N1c1ccccc1
    5.2	0.7	-1	-32	0.4	i	56*
> O=C1OC(/C(=C\NCc2ccccc2)[N+](=O)[O-])c2ccccc21 (centres undefined)
    10	0.65	-6	2	-1.0	x	-1.8
> O=c1c2ccccc2ncn1CCOCCOc1cccc(Br)c1
    0.3	0.69	-7	-9	-1.2	i	-0.7
> CC(C)Cc1cc(C(=O)NCCc2ccccc2)no1
    1.7	0.77	-22	-20	2.8	i	3.8
> O=C(c1ccc([N+](=O)[O-])s1)N1CCN(c2ccccc2)CC1
    5.9	0.72	-13	2	-0.1	x	-5.1
> O=C(CC(SCCO)c1ccc2c(c1)OCO2)c1cccs1 (centres undefined)
    5.3	0.69	34	-2	12	x	3.5
> COc1ccc(Cl)cc1NC(=S)NCCc1ccc(F)cc1
    1.6	0.69	-22	11	3.2	x	-3.0
> Cc1cccc2sc(NC(=O)C3CCN(S(=O)(=O)c4cc([N+](=O)[O-])ccc4Cl)CC3)nc12
    3.2	0.65	-2	-8	-13	i	-16
> Cc1nc2sc(C(c3cccc(F)c3)N3CCCC(C)C3)c(O)n2n1 (centres undefined)
    7.0	0.7	4	9	-7.4	x	1.6
> O=[N+]([O-])c1cccc(S(=O)(=O)NCCCN2CCOCC2)c1
    2.6	0.59	-3	-3	1.7	i	-0.8
> COc1ccc(NC(=O)c2cc3ccccc3o2)cc1OC
    0.5	0.68	-5	-2	1.8	i	2.6
> C=CCN1CN(CCc2ccccc2)CNC1=S
    0.6	0.64	x	7	-5.4	i	-6.0
> COc1ccccc1NC(=O)C1CCCN(S(=O)(=O)c2cccc3nsnc23)C1 (centres undefined)
    5.5	0.69	-7	-4	5.7	x	-2.8
> CCOC(=O)c1ccc(S(=O)(=O)Nc2cc(C(C)(C)C)no2)cc1
    2.1	0.64	11	1	-4.8	x	-4.5
> COc1ccc(S(=O)(=O)N2CCOCC2)cc1NC(=O)COc1ccc(C(C)=O)cc1OC
    0.7	0.65	x	9	x	i	-1.5
> CC(=O)Nc1ccc2nc(C3CC3)n(Cc3ccc(Cl)cc3)c(=O)c2c1
    2.3	0.68	6	0	3.5	i	-0.2
> COCCN(Cc1ccccc1)C(=O)C1CCN(C(=O)Nc2ccccc2)CC1
    -0.9	0.66	-4	1	-6.1	i	1.8

From PubChem
